HPGD block: qHTS Assay for Inhibitors of HPGD (15-Hydroxyprostaglandin Dehydrogenase); 150,000 compounds, 4.3% hits; AID 894, 2007; purified HPGD, NADH fluorescence kinetic, PGE2 substrate; 15-hydroxyprostaglandin dehydrogenase [NAD(+)] (Homo sapiens), P15428; Potency, µM, without a hit: at the top dose activity change, negative = inhibition, hits mostly inhibitors; active = well fitted inhibition curve with a large enough effect (not every such curve was filed as active); inconclusive = small, poorly fitted or top-dose-only effect, or another doubt; inactive = no such curve, though single readings can be large or run the other way;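 note: top concentration of the series not given in the record; plate controls included wells without enzyme; inactives centre near -10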
Target sequence (P15428 whole entry, looked up): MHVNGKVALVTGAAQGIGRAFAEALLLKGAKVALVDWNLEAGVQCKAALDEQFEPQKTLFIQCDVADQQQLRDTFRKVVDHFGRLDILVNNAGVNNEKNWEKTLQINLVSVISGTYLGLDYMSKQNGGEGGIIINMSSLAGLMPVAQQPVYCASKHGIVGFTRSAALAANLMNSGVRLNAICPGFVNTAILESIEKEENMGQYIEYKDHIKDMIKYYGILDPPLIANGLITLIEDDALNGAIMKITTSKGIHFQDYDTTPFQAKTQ
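20 nM HPGD preincubated 15 min at room temperature with compound in 50 mM Tris-HCl pH 8, 0.01% Tween 20. Started with 1 mM NAD+ and 30 uM prostaglandin E2; NADH fluorescence (360/450 nm) read 5 times over 30-s intervals, last minus first.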
* = called active by the depositor; ? = inconclusive. % is set by controls: 0 for no effect and ±100 for the full control effect; potency is the fitted concentration of half-maximal effect. An excerpt; rates above refer to the full screens.

#1 CCOc1cccc(C2NCc3ccccc3-n3cccc32)c1O (configuration not stated)
  HPGD block: -7%

#2 CCc1ccc(OCCCN=C(C)c2c(O)n(C)c(=O)n(C)c2=O)cc1
  HPGD block: -20%

#3 O=C1CC[C@@]2(O)[C@H]3Cc4ccc(O)c5c4[C@@]2(CCN3CC2CC2)[C@@H]1O5
  HPGD block: -4%

#4 CC[C@@H]1CN2CCc3cc(OC)c(OC)cc3[C@@H]2C[C@@H]1C[C@H]1NCCc2cc(OC)c(OC)cc21
  HPGD block: 0%

#5 Cc1cccc(CSc2nc3c(cc2C#N)CN(C)CC3)c1
  HPGD block: ?

#6 O=c1[nH]c(=O)n(Cc2ccccc2)c(O)c1C=NCCCO
  HPGD block: -19%

#7 Oc1ccc2c3c1O[C@H]1c4[nH]c5ccccc5c4C[C@@]4(O)C(C2)N(CC2CC2)CCC314 (some centres not stated)
  HPGD block: -6%

#8 CC(C)CCNC(=O)c1c(N)n(CC2CCCO2)c2nc3ccccc3nc12 (configuration not stated)
  HPGD block: ?

#9 O=C(c1ccco1)c1cn(Cc2ccccc2)c2ccccc12
  HPGD block: -13%

#10 C=CCN1C[C@@H](C)N([C@H](c2ccc(C(=O)N(CC)CC)cc2)c2cccc(OC)c2)C[C@@H]1C
  HPGD block: -20%

Four structures from above, sorted by molecular weight, ascending:
#6 O=c1[nH]c(=O)n(Cc2ccccc2)c(O)c1C=NCCCO
  HPGD block: -19%

#1 CCOc1cccc(C2NCc3ccccc3-n3cccc32)c1O (configuration not stated)
  HPGD block: -7%

#8 CC(C)CCNC(=O)c1c(N)n(CC2CCCO2)c2nc3ccccc3nc12 (configuration not stated)
  HPGD block: ?

#4 CC[C@@H]1CN2CCc3cc(OC)c(OC)cc3[C@@H]2C[C@@H]1C[C@H]1NCCc2cc(OC)c(OC)cc21
  HPGD block: 0%

Compound activity (PubChem BioAssay)
